Source: PubChem BioAssay
Cruzain noTriton = qHTS Assay for Promiscuous and Specific Inhibitors of Cruzain (without detergent) | Potency, µM, without a hit: max response, negative = inhibition, usual class: inhibitors | Cruzipain (Trypanosoma cruzi), P25779 | purified cruzain, Z-FR-AMC fluorescence, no detergent | 2.3% of 200,000 active; active = well fitted curve in the direction sought with a large enough effect; inconclusive = small, poorly fitted or top-dose-only effect, or another doubt; inactive = no such curve, though single readings can be large; an effect the other way counts as inactive or inconclusive;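 also: plate controls were enzyme without inhibitor for no effect and buffer without enzyme for full effect; nearly all actives have a fitted effect of over 40% in size; top concentration of the series not given in the record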
Target sequence (P25779 123-467 limits assumed): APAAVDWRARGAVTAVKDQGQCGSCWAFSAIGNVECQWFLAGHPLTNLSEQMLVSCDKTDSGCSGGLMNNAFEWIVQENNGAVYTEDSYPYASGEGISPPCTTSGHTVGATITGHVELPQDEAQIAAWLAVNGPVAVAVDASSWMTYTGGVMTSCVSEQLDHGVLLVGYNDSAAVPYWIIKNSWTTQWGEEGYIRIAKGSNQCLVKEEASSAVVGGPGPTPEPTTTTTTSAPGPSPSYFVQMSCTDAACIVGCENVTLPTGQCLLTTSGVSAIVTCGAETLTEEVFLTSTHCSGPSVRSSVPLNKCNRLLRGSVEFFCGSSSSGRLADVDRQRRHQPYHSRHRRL
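Detergent-free condition (0.00005% Triton X-100) in acetate buffer pH 5.5 with DTT. 1.5 nM enzyme and compound were pre-mixed 15 min, then 2 uM Z-FR-AMC substrate added; reaction progress from fluorescence change between first and third reads (60 s).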
LASV entry inh = qHTS for Inhibitors of binding or entry into cells for Lassa Virus; Lassa virus pseudotype entry inhibition, cell reporter; control for the full effect not named in the record; Potency, µM (titrated, usually from 37.9 µM), for the others: top-dose activity change, negative = inhibition, actives largely listed as inhibitors; 1.2% of 300,000 active; AID 540256, 2011; active means well fitted inhibition curve with a large enough effect; inconclusive means small, poorly fitted or top-dose-only effect, or effect the other way; inactive means flat fitted curve, though single readings scatter; tested in HEK293 cells; also: % is scaled to controls: 0 for no effect and ±100 for the full control effect; nearly all actives have a fitted effect of over 50% in size; luciferase read-out
Marburg entry inh = qHTS for inhibitors of binding or entry into cells for Marburg Virus; Potency, µM (titrated, usually from 37.8 µM), inactives show at the top dose activity change, negative = inhibition, hits mostly inhibitors; 1.8% of 300,000 active; Marburg virus pseudotyped entry inhibition, cell reporter; control for the full effect not named in the record; about a third of the inactives were read at about 46 µM; AID 540276, 2011; active = well fitted inhibition curve with a large enough effect; inconclusive = small, poorly fitted or top-dose-only effect, or effect the other way; inactive = flat fitted curve, though single readings scatter; tested in HEK293 cells; about a fifth of its hits are not listed in these tables; also: % is scaled to controls: 0 for no effect and ±100 for the full control effect; luciferase read-out
NS1 inh = qHTS Assay for Inhibitors of Influenza NS1 Protein Function; S. cerevisiae slowed by influenza A NS1, growth recovery by OD600; Potency, µM (top dose mostly 46.1 µM), inactives show top-dose activity, positive = more growth; 0.4% of 270,000 active; also: actives are rising curves; nearly all actives have a fitted effect of over 50% in size
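Read-out: OD600 growth recovery of NS1-expressing budding yeast. Cells grown overnight at 30C in -URA glucose medium, washed, resuspended and diluted 1:100 in 2% galactose assay medium, pH 6.0. Same strain lacking NS1 served as positive control.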
StopGo reporter = High Throughput Screening for Foot and Mouth Disease Virus Antivirals. 1.2% of 410,000 active. Potency, µM (top dose mostly 57.9 µM), without a hit: top-dose signal change, negative = less light. human cells with a luciferase reporter of 2A StopGo recoding; control for the full effect not named in the record; active = well fitted falling curve with a large enough effect; inconclusive = small, poorly fitted or top-dose-only effect; inactive = no such curve, though single readings can be large or run the other way; tested in HEK293T cells; also: % is scaled to controls: 0 for no effect and ±100 for the full control effect; nearly all actives have a fitted effect of over 45% in size; luciferase light after 4 h
Cruzain Triton = qHTS Assay for Promiscuous and Specific Inhibitors of Cruzain (with detergent). purified cruzain, Z-FR-AMC fluorescence, 0.01% Triton. AID 1478, 2009. Potency, µM, inactives show max response, negative = inhibition, usual class: inhibitors. 0.43% of 200,000 active; active = well fitted curve in the direction sought with a large enough effect; inconclusive = small, poorly fitted or top-dose-only effect, or another doubt; inactive = no such curve, though single readings can be large; an effect the other way counts as inactive or inconclusive;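 also: plate controls were neutral wells for no effect and buffer without enzyme for full effect; nearly all actives have a fitted effect of over 40% in size; top concentration of the series not given in the record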
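Sodium acetate buffer (100 mM, pH 5.5) containing 5 mM DTT and 0.01% Triton X-100 hosted 1.5 nM cruzain and test compound for 15 min at room temperature. Cleavage of 2 uM Z-FR-AMC was then tracked by fluorescence.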
SARS PLP yeast = qHTS of Yeast-based Assay for SARS-CoV PLP. S. cerevisiae expressing SARS-CoV PLpro, growth rescue; control for the full effect not named in the record. Potency, µM (top dose mostly 32.9 µM), inactives show at the highest dose activity, positive = growth rescue. 0.19% of 330,000 active; also: 0% is about no effect; nearly all actives have a fitted effect of over 55% in size; growth read by luminescence after 48 h
RE007 growth inh = qHTS Assay for Inhibitors of the HIV-1 protein Vpr; S. pombe RE007 Vpr strain, BacTiter-Glo ATP luminescence, 24 h; control for the full effect not named in the record; Potency, µM (series often up to 92.2 µM), without a hit: at the highest dose activity change, negative = less growth; 0.21% of 360,000 active; active = well fitted falling curve with a large enough effect; inconclusive = small, poorly fitted or top-dose-only effect; inactive = no such curve, though single readings can be large or run the other way;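 also: % is scaled to controls: 0 for no effect and ±100 for the full control effect; nearly all actives have a fitted effect of over 50% in size; the assay follows cell death caused by Vpr and the record does not say whether a fall means rescue or toxicity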
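Fission yeast strain RE007, carrying one chromosomally integrated HIV-1 vpr copy, was seeded at OD 0.01 in PMG+AL medium with 23 nL pinned compound. After 24 h at 30 °C and 99% humidity, viability was read by BacTiter-Glo luminescence.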
An asterisk follows results filed as active; ? = inconclusive; nt = no result given; & = joins results of further samples; [ ] = remark or other dose. Unless noted, calls follow the shape of the dose curve; as a rule, active means well fitted rising curve with a large enough effect; inconclusive means small, poorly fitted or top-dose-only effect; inactive means no such curve, though single readings can be large or run the other way. Potency is read from the fitted curve at half-maximal effect.

SMILES | Cruzain noTriton | LASV entry inh | Marburg entry inh | NS1 inh | StopGo reporter | Cruzain Triton | SARS PLP yeast | RE007 growth inh
COc1ccc(NC(=O)N(Cc2cc3ccc(OC)cc3[nH]c2=O)CC2CCCO2)cc1 (stereo not drawn) | nt | ? | ? | -2.9% | -4.6% | nt | 0.6% | -13.5%
Cc1cccc(-c2cccc(NC(=O)C3CCCN(C(=O)c4ocnc4C)C3)c2)c1 (stereo not drawn) | nt | 3.55µM* | ? | -12.5% | 21.1% | nt | 1.1% | -0.8%
CCOc1ccccc1NC(=O)C(Sc1ccccc1)c1ccccc1 (stereo not drawn) | 1.0% | 12.6µM* | ? | 6.9% | -27.9% | -1.7% | -8.5% | -17.8%
N#C/C(C(=O)Oc1ccccc1)=C1/Nc2ccccc2-c2ccccc21 | 12.6µM* | 6.5% | -19.0% | -3.2% | 3.8% | 2.4% | -1.6% | -2.3%
Cc1ccc(/C=C2/SC(=S)N(CCCC(=O)Nc3ccc(O)cc3)C2=O)cc1 | nt | ? | ? | -3.6% | 7.4% | nt | -2.4% | -8.2%
Cc1ccc2cc(CNC(C)(C)C)c(=O)[nH]c2c1 | 0.6% | -21.5% | -8.7% | -3.2% | -15.7% | 3.3% | -5.2% | -16.8%
O=C(CCc1ccc(O)cc1)c1c(O)cc(O)cc1O[C@@H]1O[C@H](CO)[C@@H](O)[C@H](O)[C@H]1O | 3.5% | nt | nt | -5.7% | -22.7% | -2.8% | -3.3% | 20.3%[18.4 µM]
CCc1ccc(NC(=O)CC2C(=O)N(c3ccc(C)cc3)C(=O)N2CCc2ccncc2)cc1 (stereo not drawn) | ? | -11.9%&-1.2%[46.1 µM] | ? | nt | -13.4%&1.9% | -4.3% | 1.5% | -15.8%
CCOC(=O)c1cnn(-c2ccccc2)c1-c1ccncc1 | nt | nt | nt | -5.4% | ? | nt | -1.1% | 3.7%
O=C(Nc1ccc(N2CCN(C(=O)c3ccc(Cl)cc3)CC2)cc1)c1ccc2c(c1)OCCO2 | -5.6% | ? | ? | 6.8% | 11.2µM* | -2.6% | 5.2% | 3.1%
O=C(Nc1ccc(S(=O)(=O)Nc2ncccn2)cc1)c1ccc2ncsc2c1 | nt | nt | nt | ? | -10.2% | nt | -0.2% | -9.7%
CN(C)/C=C(\C#N)C(=O)N/N=C/c1ccccc1 | nt | ? | ? | nt | 26.9% | nt | 0.7% | -15.2%
O=C(NC(=S)NNS(=O)(=O)c1ccccc1)c1ccc([N+](=O)[O-])cc1 | 10µM* | 3.5% | -19.1% | 2.2% | 0.0% | ? | -5.8% | ?
Cc1ccc(C(=O)N2CCCC(N3CCN(c4ccccc4F)CC3)C2)s1 (stereo not drawn) | nt | ? | -22.5% | 2.8% | -17.7% | nt | 4.8% | 1.9%
Cc1cc(C)cc(OC(=O)N2CCOCC2)c1 | -8.2% | 16.8% | 1.1% | -6.8% | -17.0% | 3.1% | -6.9% | -5.3%
CCC(=O)c1ccccc1OCCSc1nc(C)cc(=O)[nH]1 | -9.9% | -22.5%[14.3 µM] | -0.9% | 5.5% | 13.1% | 1.9% | 7.0% | 4.5%
COc1ccc(N2CCN(c3nc4ccccc4n3CC(=O)c3ccccc3)CC2)cc1 | -2.1% | -0.3% | -5.4%&-15.6% | -24.6% | -14.2% | -2.2% | 15.6% | -6.0%[3.69 µM]
CCC1Oc2ccc(C)cc2N(CC(=O)NCCN2CCCCCC2)C1=O (stereo not drawn) | -4.0% | -14.9% | ? | -6.5% | nt | -0.3% | -13.8% | -7.1%
COc1ccc(C(=O)Nc2ccc3nc(SCC(=O)N4CCOCC4)sc3c2)cc1 | 7.1% | 4.0%[46.1 µM] | 13.5%[46.1 µM] | nt | -3.8% | -6.1% | nt | nt
COCCNC(=O)CSc1cn(CC(=O)N2CCCCCC2)c2ccccc12 | -11.9% | -5.4%[46.1 µM] | nt | nt | 4.3% | -4.3% | nt | nt
CCN1C(=O)Cc2cc(S(=O)(=O)N3CCOCC3)ccc21 | 2.8% | 2.3% | 12.3%[46.1 µM] | -9.7% | -23.9% | 3.2% | 2.0% | 0.5%
CCC(=O)N1CCN(c2ccc(NC(=O)c3cccs3)cc2)CC1 | -3.4% | 14.1% | -9.1% | 5.2% | 56.8%[activator] | 2.2% | -1.0% | 27.3%
COC(=O)/C=c1/s/c(=C(/C#N)C(=O)N2CCCCC2)n(-c2ccccc2)c1=O | 6.8% | 2.9% | -33.1% | 9.3% | -14.9% | -2.8% | 4.5% | nt
Cc1ccc(OCC(=O)NNC(=S)NC(=O)c2cccs2)c(C)c1 | nt | -0.7%[46.1 µM] | 13.6%[46.1 µM] | 10.8% | -3.2% | nt | -0.6% | 12.4%
O=C(CCN1C(=O)C2C3C=CC(C3)C2C1=O)Nc1nccs1 (stereo not drawn) | 1.7% | 4.6% | 29.5% | 2.0% | -15.5% | -2.1% | 0.4% | 7.0%
Additional results.
SMILES | Cruzain noTriton | LASV entry inh | Marburg entry inh | NS1 inh | StopGo reporter | Cruzain Triton | SARS PLP yeast | RE007 growth inh
CC(=O)Nc1ccc(NC(=O)CSc2nnc(NC(=O)C3CC(=O)N(c4ccccc4)C3)s2)cc1 (stereo not drawn) | nt | -4.9% | 3.9% | -4.5% | -5.4% | nt | 9.7% | 19.3%
Cn1c2c(c(=O)n(C)c1=O)C(c1ccc(Br)cc1)C(C#N)=C(N)N2 (stereo not drawn) | nt | nt | nt | 11.7% | -16.2% | nt | 0.9% | -6.1%
CCCCCCCC(=O)OC(CN1CCCCC1)CN1CCCC1=O (stereo not drawn) | -0.4% | 2.5% | ? | 2.9% | nt | 13.9% | -5.0% | -16.6%
CC(=O)c1cccc(NC(=O)N(c2ccccc2)c2ccccc2)c1 | nt | -0.8% | 13.0% | 11.8% | -10.2% | nt | 8.6% | 12.1%
COc1ccc(NC(=O)CSc2nc(=O)n(CCN(C)C)c3c2CCCC3)cc1 | nt | ? | ? | nt | 20.3% | nt | -4.6% | 0.7%
Clc1ccc(Oc2ncnc3oc(-c4ccccc4)cc23)cc1 | 20µM* | -0.3% | 29.3% | 8.1% | 0.0% | -0.6% | 3.8% | -1.7%
Cc1cccc(N(CC(=O)NCc2ccc(F)cc2)C(=O)c2ccco2)c1 | nt | -12.7% | -14.5%[46.1 µM] | 2.1% | -18.5% | nt | 10.3% | -1.8%
COc1cccc(Nc2ncnc3c2cnn3-c2cccc(C)c2)c1 | -7.8% | 5.0% | -16.3% | 7.7% | -3.0% | -13.0% | -2.5% | 4.0%
Cc1ccc(-c2nn3c(C)nnc3c3ccccc23)cc1S(=O)(=O)NCCN1CCOCC1 | -4.7% | -2.4% | -11.9% | -12.5% | 103.3%[activator] | 0.0% | 0.1% | -5.2%
Cc1ccc(S(=O)(=O)N2CCN(c3ccc([N+](=O)[O-])c(NCCN4CCOCC4)c3)CC2)cc1 | ? | -6.0% | -7.6% | 7.5% | -4.0% | -11.0% | -5.6% | 6.8%
Cc1noc(C)c1COc1ccc(C(=O)OCC(=O)Nc2ccc3ccccc3c2)cc1 | ? | 16.2% | -0.5% | 2.9% | 1.0% | -1.6% | 2.7% | 15.9%
O=C(Nc1cccnc1)c1ccc(Cl)c(S(=O)(=O)N2CCc3ccccc32)c1 | nt | -2.0% | -11.2%[46.1 µM] | nt | -22.1% | nt | -2.4% | -13.0%
CC(C)COc1ccc(/C=C2/Sc3ccccc3C2=O)cc1 | -0.7% | -28.9% | 10.8% | 14.6% | -2.2% | -2.8% | -0.4% | -8.4%
Cc1ccc(S(=O)(=O)Cn2nnnc2C(C(C)C)N2CCC(O)CC2)cc1 (stereo not drawn) | nt | 22.4% | 16.1%[46.1 µM] | 9.1% | -1.5% | nt | 3.2% | 72.1%
CCOc1ccc(OCCSc2nc3ccccc3c(=O)[nH]2)cc1 | -7.8% | -7.1% | 4.1% | -0.5% | 8.4% | 0.9% | -8.2% | 20.5%
Cc1nnc(N/N=C/c2c(Cl)cccc2Cl)n1N | nt | 1.0% | ? | -5.5% | -6.7% | nt | -2.1% | -15.8%
N#CCCN(C(=O)COc1ccc(F)cc1Br)c1ccccc1F | nt | -10.9%[46.1 µM] | 20.9%[46.1 µM] | nt | -7.8% | nt | 0.6% | -1.1%
CC1(Cc2ccc3c(c2)OCO3)NC(=O)NC1=O (stereo not drawn) | -3.5% | -2.5% | 11.9% | ? | -18.6% | 1.3% | 7.0% | 2.9%
O=C(CCC(=O)NC1CC1)Nc1nnc(C2CCCCC2)s1 | -3.5% | ? | 0.5%[46.1 µM] | 9.8% | -1.1% | 2.1% | 12.3% | -23.9%
O=C(COC(=O)C1CC2CCCC(C1)C2=O)NNC(=O)c1ccccc1Br (stereo not drawn) | nt | 6.6% | 16.8% | nt | -22.8% | nt | -8.4% | ?
C/C(=N\N(C)C)c1ccc(OCCOc2ccc([N+](=O)[O-])cc2)cc1 | nt | -14.2% | 1.8%[46.1 µM] | -39.5% | -27.2% | nt | -5.2% | -3.6%
O=c1c2cc(Cl)ccc2nc(-c2ccc([N+](=O)[O-])cc2)n1O | nt | ? | -65.1%[46.1 µM] | nt | -14.4% | nt | 3.7% | ?
CC12CCC(=O)N1C(C(=O)Nc1nc3c(F)cc(F)cc3s1)CS2 (stereo not drawn) | nt | -4.1% | 29.1% | 20.6% | -9.7% | nt | 0.4% | -2.7%
CCN(c1cccc(C)c1)S(=O)(=O)c1c(C)[nH]c(=O)[nH]c1=O | 3.6% | -4.3% | 2.2% | 1.6% | nt | 4.1% | -2.1% | 17.4%
CN(C)CCNC(=O)NC(=O)c1ccc(Cl)cc1 | -2.9% | ? | ? | 3.0% | 22.0% | -4.8% | 5.8% | 6.2%

No enrichment for hits (roughly 4.6% active in at least one column).
